Assay outcomes deposited in PubChem by Broad Institute.
A1 inh: inducers of caspase activity in MEF A1-2A-BIM cells, primary screen, A1 inhibitor project, cell-based, CaspaseGlo luminescence; AID 2241, 2010; caspase-Glo luminescence, 3 h; percent of clofoctol signal, DMSO as zero; caspase activation, % (test concentration not listed); hit rate 0.51% among 21,000;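 active = most replicate scores above 10, or exactly half above 10 with mean activity above 10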;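 note: effector caspase 3 and 7 activity cleaving a DEVD luciferin substrate; 50 nL library stock added to about 30 µL; numbers are from one replicate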
BJeLR viability: BJeLR cell viability loss, primary screen, luminescence, CellTiterGlo ATP; hit rate 0.64% among 30,000; viability loss activity score, % (concentration not given with the values); AID 2275, 2010; BJeLR fibroblasts viability, 48 h; HRASV12, hTERT and SV40 LT/ST transformed; in the data active = viability loss activity score above about 50%; about a fifth of its hits are not listed in these tables;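 note: higher score means fewer live cells and less ATP luminescence; stock transfer was 50 or 100 nL into about 30 µL; 0% = vehicle wells and 100% = a reference killing control; one replicate is shown; the record names a cut of 85%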
Numbers without * were called inactive; nt = no result given. Not all compounds are listed; the hit share may differ from the screen's.

SMILES	A1 inh	BJeLR viability
O=C(CC(C(=O)N1CCc2ccccc21)n1ccnc1)N1CCc2ccccc2C1 (stereo not drawn)	0.7	1.3
Cc1ccc(S(=O)(=O)Nc2cccc3c2O[C@H](CN(C)C(=O)Nc2ccc4c(c2)OCO4)[C@@H](C)CN([C@H](C)CO)C3=O)cc1	nt	3.4
C[C@@H]1CN([C@H](C)CO)C(=O)c2cccc(NS(=O)(=O)c3ccc(F)cc3)c2O[C@@H]1CN(C)C(=O)NC1CCCCC1	nt	-3.0
C[C@@H]1CN([C@H](C)CO)C(=O)c2cccc(NC(=O)C3CCCCC3)c2O[C@H]1CN(C)Cc1ccc(C(=O)O)cc1	nt	1.6
Cc1noc(C)c1S(=O)(=O)Nc1ccc2c(c1)C(=O)N([C@H](C)CO)C[C@@H](C)[C@@H](CN(C)Cc1ccncc1)O2	0.6	3.3
O=c1cc(CSc2nc3ccccc3s2)c2ccccc2[nH]1	-0.7	4.3
COc1ccc(S(=O)(=O)N(C)C[C@@H]2Oc3ccc(NS(C)(=O)=O)cc3C(=O)N([C@H](C)CO)C[C@H]2C)cc1	0.9	1.7
Cc1noc(C)c1S(=O)(=O)N(C)C[C@@H]1Oc2ccc(NS(C)(=O)=O)cc2C(=O)N([C@H](C)CO)C[C@@H]1C	-0.1	-0.3
CCCNC(=O)c1[nH]c2cc(OC)ccc2c1Sc1ccccc1	-0.1	4.2
CNC[C@H]1Oc2ccc(NS(C)(=O)=O)cc2C(=O)N([C@H](C)CO)C[C@H]1C	0.4	-1.5
CC1OC(OC2CCC3(C)C(CCC4(C)C3CC=C3C5CC(C)(C)CCC5(C(=O)OC5OC(CO)C(OC6OCC(OC7OC(CO)C(O)C(O)C7O)C(OC7OCC(O)C(O)C7O)C6O)C(O)C5O)CCC34C)C2(C)C)C(O)C(O)C1OC1OCC(O)C(O)C1O (stereo not drawn)	-0.1	0.4
CC(C)NC(=O)Nc1cccc2c1O[C@H](CN(C)S(=O)(=O)c1ccccc1)[C@@H](C)CN([C@H](C)CO)C2=O	nt	-4.7
C[C@H]1CN([C@@H](C)CO)C(=O)c2cc(NS(=O)(=O)c3cn(C)cn3)ccc2O[C@@H]1CN(C)C(=O)Nc1ccccc1	-0.5	-4.8
O=C(NCCC1=CCCCC1)c1sc2ccccc2c1Cl	-1.9	1.0
Cc1cc(C)n(Cc2ccccc2)c(=O)c1C#N	0.2	-0.6

2 entries from above, as labelled records.
Molecule: CCCNC(=O)c1[nH]c2cc(OC)ccc2c1Sc1ccccc1
  A1 inh: -0.1; BJeLR viability: 4.2
Molecule: CNC[C@H]1Oc2ccc(NS(C)(=O)=O)cc2C(=O)N([C@H](C)CO)C[C@H]1C
  A1 inh: 0.4; BJeLR viability: -1.5

Next entries
SMILES	A1 inh	BJeLR viability
O=C(CNS(=O)(=O)c1cccs1)NC(c1ccccc1)c1ccccc1	nt	2.9
COc1ccc(NC(=O)N(C)C[C@@H]2Oc3c(NC(=O)NC4CCCCC4)cccc3C(=O)N([C@@H](C)CO)C[C@H]2C)cc1	nt	-5.7
O=S(=O)(c1ccccc1)N1CCN(CCO)CC1	-0.8	3.5
CCOC(=O)N1CCC(NS(=O)(=O)c2ccc3c(c2)C(C)(C)C(=O)N3C)CC1	-0.4	13.3
C[C@H](CO)N1C[C@H](C)[C@H](CN(C)CC2CC2)Oc2ccc(NC(=O)C3CC3)cc2C1=O	-0.5	0.0
O=C(O)CN1C(=O)CCS(=O)(=O)c2ccccc21	0.1	-0.1
O=C(CCN1C(=O)COc2ccccc21)NCc1ccccc1	-0.5	2.7
COc1ccc(-c2cnnn2-c2ccc(NC(=O)c3ccccc3C(F)(F)F)cc2)cc1OC	0.0	-2.8
CC1CCCC(C)N1CCCNc1ccc2nnc(-c3ccccc3)n2n1 (stereo not drawn)	0.4	6.0
Cn1c(CSc2ccnc3cc(Cl)ccc23)nnc1SCC(=O)c1ccc(Cl)s1	0.4	-1.8
C[C@@H]1CN([C@@H](C)CO)C(=O)c2cccc(NC(=O)c3ccc(-c4nccs4)cc3)c2O[C@@H]1CN(C)C(=O)NC1CCCCC1	nt	4.3
COc1ccccc1-c1cc(C(F)(F)F)nc(S(=O)(=O)CCCC(=O)N2CCCCC2C)n1 (stereo not drawn)	nt	-11.6
O=C(CCn1c(=O)[nH]c2ccccc2c1=O)N1CCCCC1	0.2	4.5
CCn1c(C)nc2cc(S(=O)(=O)N3CCOCC3)ccc21	0.0	2.1
COc1ccc(-c2cc(=O)c3cc(OC(=O)c4ccc(OC)c(OC)c4)ccc3o2)cc1	-2.6	3.1

Taken from the listing for reference:
SMILES	A1 inh	BJeLR viability
CC1CCCC(C)N1CCCNc1ccc2nnc(-c3ccccc3)n2n1 (stereo not drawn)	0.4	6.0
Cn1c(CSc2ccnc3cc(Cl)ccc23)nnc1SCC(=O)c1ccc(Cl)s1	0.4	-1.8
C[C@@H]1CN([C@@H](C)CO)C(=O)c2cccc(NC(=O)c3ccc(-c4nccs4)cc3)c2O[C@@H]1CN(C)C(=O)NC1CCCCC1	nt	4.3
COc1ccccc1-c1cc(C(F)(F)F)nc(S(=O)(=O)CCCC(=O)N2CCCCC2C)n1 (stereo not drawn)	nt	-11.6
O=C(CCn1c(=O)[nH]c2ccccc2c1=O)N1CCCCC1	0.2	4.5
CCn1c(C)nc2cc(S(=O)(=O)N3CCOCC3)ccc21	0.0	2.1
COc1ccc(-c2cc(=O)c3cc(OC(=O)c4ccc(OC)c(OC)c4)ccc3o2)cc1	-2.6	3.1

New compounds follow:
SMILES	A1 inh	BJeLR viability
CCN(Cc1ccccc1)S(=O)(=O)c1nc2nc(C)c(C)c(C)n2n1	-0.3	-1.7
Cc1ccc(S(=O)(=O)Nc2ccc3c(c2)C(=O)N([C@@H](C)CO)C[C@H](C)[C@@H](CN(C)C(=O)NC(C)C)O3)cc1	0.4	0.1
O=C(Oc1ccc(-c2ccccc2)cc1)c1cccs1	0.2	2.6
C[C@H](CO)N1C[C@H](C)[C@@H](CN(C)Cc2ccncc2)Oc2ccc(NC(=O)CCC(F)(F)F)cc2C1=O	0.1	-1.0
CCOC(=O)c1cc(-c2ccnn2S(=O)(=O)c2ccc(C)cc2)on1	-0.2	-11.4
Cc1noc(C)c1NC(=O)N(C)C[C@@H]1Oc2c(NC(=O)Nc3ccccc3)cccc2C(=O)N([C@H](C)CO)C[C@H]1C	nt	8.2
CN1C(=O)/C(=C\c2ccncc2)SC1=S	3.0	-3.0
COC(=O)C1C(=O)NC(SCC(=O)NCc2ccccc2)=C(C#N)C1c1ccccc1F (stereo not drawn)	0.0	9.0
C[C@@H]1CN([C@H](C)CO)C(=O)c2cccc(NC(=O)C3CC3)c2O[C@H]1CN(C)S(C)(=O)=O	nt	2.8
CC(C)NC(=O)Nc1ccc2c(c1)C(=O)N([C@H](C)CO)C[C@@H](C)[C@H](CN(C)S(=O)(=O)c1cccs1)O2	0.6	0.4
O=S(=O)(c1ccc(-c2cc(C(F)(F)F)on2)s1)N1CCc2c([nH]c3ccc(F)cc23)C1	0.0	-5.3
COc1ccc(OC)c(-c2nc(Nc3ccccc3F)sc2CC(=O)O)c1	nt	-0.8
C[C@H]1CN([C@@H](C)CO)C(=O)c2cc(NS(=O)(=O)c3cn(C)cn3)ccc2O[C@@H]1CN(C)Cc1ccncc1	0.2	-2.2
CCn1c(=O)c2cc(C(=O)NCc3cccs3)sc2c2ccccc21	nt	7.5
Cc1n[nH]c(C)c1N1C(=O)c2cccc3c(N)ccc(c23)C1=O	0.0	-5.1

Reformatted: entries from further up
| SMILES | A1 inh | BJeLR viability |
| --- | --- | --- |
| O=C(Oc1ccc(-c2ccccc2)cc1)c1cccs1 | 0.2 | 2.6 |
| CC(C)NC(=O)Nc1ccc2c(c1)C(=O)N([C@H](C)CO)C[C@@H](C)[C@H](CN(C)S(=O)(=O)c1cccs1)O2 | 0.6 | 0.4 |

Next results follow:
SMILES	A1 inh	BJeLR viability
O=C1C(=Nc2ccccc2)c2ccccc2N1Cc1ccccc1	0.7	3.5
Cc1ccc(C)c(NC(=O)Cc2c(C)nc3c(-c4ccccc4)c(C)nn3c2C)c1	-1.2	10.0
COc1cc2c(cc1O)C1Cc3ccc(O)c(OC)c3CN1CC2 (stereo not drawn)	0.5	8.2
CCCN(C(=O)c1cc2cc3ccc(C)cc3nc2o1)c1cccc(C)c1	nt	1.7
Cc1noc(C)c1NC(=O)Nc1ccc2c(c1)C(=O)N([C@H](C)CO)C[C@@H](C)[C@@H](CN(C)CC1CCCCC1)O2	-0.4	-1.1
CC(C)NC(=O)N(C)C[C@@H]1Oc2ccc(NC(=O)CCC(F)(F)F)cc2C(=O)N([C@H](C)CO)C[C@@H]1C	0.6	-0.6
COc1ccccc1Nc1c2c(nc3ccc(NC(=O)Cc4cccs4)cc13)CCCC2	nt	5.5
C[C@@H]1CN([C@@H](C)CO)C(=O)c2cccc(NC(=O)c3ccc(-c4nccs4)cc3)c2O[C@H]1CN(C)Cc1ccncc1	nt	0.2
CCCCN(C(=S)Nc1cccc(C)c1)C1CCN(C(C)=O)CC1	nt	4.0
N=C(N)SCc1ccc(Cl)cc1Cl	3.1	9.2
C[C@H](CO)N1C[C@H](C)[C@H](CN(C)S(C)(=O)=O)Oc2c(cccc2N(C)C)C1=O	nt	-1.3
COc1ccc(NC(=O)N(C)C[C@@H]2Oc3ccc(NC(=O)Nc4ccc(C(F)(F)F)cc4)cc3C(=O)N([C@H](C)CO)C[C@H]2C)cc1	0.4	-3.0
Cn1c(CSCC(=O)Nc2ccccc2)nnc1SCC(=O)c1ccccc1	0.2	0.7
C[C@H](CO)N1C[C@H](C)[C@H](CN(C)C(=O)Nc2ccccc2)Oc2ccc(NC(=O)Nc3cccc4ccccc34)cc2C1=O	-0.5	-6.9
CCNC(=O)CC1C(=O)N(c2ccccc2)C(=O)N1CCOC (stereo not drawn)	nt	-0.3
O=C1CC2(CCCC2)C(=O)N1c1cc(C(F)(F)F)cc(C(F)(F)F)c1	-1.5	0.7
Cc1cccc(CCNS(=O)(=O)c2ccc3c(c2)CCN3C(=O)C2CCC2)c1	nt	0.3
COc1ccc(NC(=O)N(C)C[C@H]2Oc3ccc(NC(=O)Cc4cn(C)c5ccccc45)cc3C(=O)N([C@H](C)CO)C[C@H]2C)cc1	-0.6	-2.1
CC1CCCC(C)N1CCNC(=O)C1C2C=CC3(CN(Cc4ccccc4Cl)C(=O)C13)O2 (stereo not drawn)	-1.0	2.0
CC(C)(C)NC(=O)c1ccc2c3c(onc13)-c1ccccc1C2=O	-0.6	2.1
C[C@@H]1CN([C@H](C)CO)C(=O)c2cc(NS(=O)(=O)c3cn(C)cn3)ccc2O[C@@H]1CN(C)Cc1ccc2c(c1)OCO2	0.7	4.2
CC(=O)O[C@H]1C[C@@H](OC(C)=O)C(C)(C)C2C[C@@H](OC(C)=O)[C@]3(C)C([C@H](OC(C)=O)C[C@@]4(C)[C@H](c5ccoc5)OC(=O)[C@H]5O[C@]543)[C@]21C (stereo partly drawn)	0.8	-1.9
Cc1ccc(S(=O)(=O)N(C)C[C@H]2Oc3c(NC(=O)Nc4c(C)noc4C)cccc3C(=O)N([C@@H](C)CO)C[C@H]2C)cc1	nt	0.1
CNC[C@H]1Oc2c(NC(=O)Nc3cccc4ccccc34)cccc2C(=O)N([C@H](C)CO)C[C@H]1C	nt	-0.6
COc1ccc(C2C(C(=O)N3CCCCC3)c3ccccc3C(=O)N2C)cc1 (stereo not drawn)	nt	-5.3
COc1ccc(S(=O)(=O)N(C)C[C@H]2Oc3c(NC(=O)C4CC4)cccc3C(=O)N([C@@H](C)CO)C[C@H]2C)cc1	nt	-0.6
O=c1nc(NCCO)ccn1-c1nc(-c2ccccc2)sc1-c1ccccc1	0.8	-3.2
Cc1noc(C)c1NC(=O)N(C)C[C@@H]1Oc2ccc(NC(=O)Cc3ccccc3)cc2C(=O)N([C@H](C)CO)C[C@H]1C	1.4	-1.2
Cc1ccc(S(=O)(=O)N(C)C[C@H]2Oc3ccc(NC(=O)Cc4ccccc4)cc3C(=O)N([C@H](C)CO)C[C@H]2C)cc1	-0.5	0.0
C[C@@H]1CN([C@@H](C)CO)C(=O)c2cc(NC(=O)Nc3ccc4c(c3)OCO4)ccc2O[C@@H]1CN(C)Cc1ccc2c(c1)OCO2	-0.9	-2.7
c1ccc(C2=Nc3ccccc3N=C(c3ccccc3)C2)cc1	-1.2	8.1
CC(C)(C)Cc1nc(C2(c3ccc(Cl)cc3Cl)CC2)no1	0.8	-2.2
O=C(Nc1cccnc1)C1c2ccccc2Oc2ccccc21	1.3	-5.8
C[C@@H]1CN([C@@H](C)CO)C(=O)c2cc(NC(=O)Nc3ccc4c(c3)OCO4)ccc2O[C@@H]1CN(C)Cc1ccc(C(=O)Nc2ccccc2N)cc1	nt	6.6
O=C(Nc1ccc(Cl)cc1)c1ccn[nH]1	-5.7	12.8
C[C@@H]1CN([C@@H](C)CO)C(=O)c2cccc(NC(=O)Nc3ccc4c(c3)OCO4)c2O[C@@H]1CN(C)C(=O)Nc1ccc(C(F)(F)F)cc1	nt	2.5
CC(=O)Nc1ccc(NC(=O)Nc2ccccc2)cc1	-5.4	1.7
C[C@@H]1CN([C@H](C)CO)C(=O)c2cccc(N(C)C)c2O[C@H]1CN(C)Cc1ccc(-c2ccccc2)cc1	nt	4.6
C[C@H](CO)N1C[C@H](C)[C@@H](CN(C)S(C)(=O)=O)Oc2c(NC(=O)Nc3ccc4c(c3)OCO4)cccc2C1=O	nt	-0.1
COc1ccc(S(=O)(=O)N(C)C[C@H]2Oc3ccc(NC(=O)Nc4ccc(F)cc4)cc3C(=O)N([C@H](C)CO)C[C@@H]2C)cc1	-0.1	2.7
S=C(NCCc1ccccc1)c1ccccc1	-1.6	5.7
COc1ccc(NC(=O)N(C)C[C@@H]2Oc3ccc(NS(=O)(=O)c4ccc(F)cc4)cc3C(=O)N([C@H](C)CO)C[C@H]2C)cc1	0.2	-1.3
CC(C)(O)/C(=C/C#N)n1cccn1	0.5	0.1
